Screening results (PubChem)
GLA inh pH 4.5: qHTS Assay for Inhibitors of Human alpha-Galactosidase at pH 4.5 | Alpha-galactosidase A (Homo sapiens), P06280 | purified enzyme, 4-MU-alpha-Gal fluorescence, pH 4.5 | 230,000 tested, under 10 active | activity change, negative = inhibition, % at 105 µM; inconclusive = small, poorly fitted or top-dose-only inhibition, or a rising curve; inactive = flat fitted curve, though single readings scatter; no compound was filed as active;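 further: 0% = full activity with enzyme and -100% = basal without enzyme; dose as in the result columns while the protocol names 77 µM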
miR-21 reporter: qHTS Assay for Modulators of miRNAs and/orActivators of miR-21. Potency, µM (highest dose often 38.3 µM), without a hit: at the highest dose reporter change, positive = more light. 340,000 tested, under 10 active. HeLa miR-21 FLuc reporter, luciferase, 48 h; active = well fitted rising curve with a large enough effect; inconclusive = small, poorly fitted or top-dose-only effect; inactive = no such curve, though single readings can be large or run the other way;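 further: % of control where 0% means no effect; miR-21 action dims this reporter so a rising signal means less miR-21 action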
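Using DMEM plus 10% FBS, HeLa miR-21-FLuc cells are incubated with test compounds (final up to about 40uM) for 48 hours; firefly luciferase signal is then imaged following reagent-mediated lysis.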
Rango release inh: qHTS Assay for Inhibitors of RanGTP induced Rango (Ran-regulated importin-beta cargo) - Importin beta complex dissociation. Snurportin-1 (Homo sapiens) + GTP-binding nuclear protein Ran (Homo sapiens) + Importin …. Biochemical FRET Rango-importin beta, RanGTP-induced dissociation. Potency, µM (top dose mostly 46.1 µM), inactives show top-dose activity change, negative = inhibition. 340,000 tested, 0.071% active; active means falling FRET ratio curve, often poorly fitted, with flat reads before Ran was added; inconclusive means other falling curves, or compound fluorescence or quenching; inactive means flat or rising ratio curve;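 further: potency means the concentration at half of the fitted maximal effect; % of control where 0% means no effect; nearly all actives have a fitted effect of over 45% in size; -100% = wells without RanGTP and RCC1; the record marks most hits as doubtful in a second field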
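Two FRET readings bracket the reaction: one 5 min after compound meets Rango–importin beta, another 45 min after RanGTP-RCC1 (0.6 uM Ran, 0.2 uM RCC1, 2 mM GTP) is added. Only the second defines inhibition.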
Rango complex inh: qHTS Assay for Inhibitors of Rango (Ran-regulated importin-beta cargo) - Importin beta complex formation | Potency, µM (series often up to 92.2 µM), for inactives: top-dose inhibition of complex formation | 340,000 tested, 0.031% active | Rango CFP/YFP FRET sensor + importin beta, 45 min; active = rising FRET ratio curve, often small or poorly fitted; inconclusive = mostly compound fluorescence or quenching in the first reads; inactive = flat curves in all reads;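 further: potency means the concentration at half of the fitted maximal effect; 0% = DMSO wells and 100% = buffer wells lacking importin beta; nearly all actives have a fitted effect of over 15% in size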
Target sequence (Q14974 whole entry, looked up): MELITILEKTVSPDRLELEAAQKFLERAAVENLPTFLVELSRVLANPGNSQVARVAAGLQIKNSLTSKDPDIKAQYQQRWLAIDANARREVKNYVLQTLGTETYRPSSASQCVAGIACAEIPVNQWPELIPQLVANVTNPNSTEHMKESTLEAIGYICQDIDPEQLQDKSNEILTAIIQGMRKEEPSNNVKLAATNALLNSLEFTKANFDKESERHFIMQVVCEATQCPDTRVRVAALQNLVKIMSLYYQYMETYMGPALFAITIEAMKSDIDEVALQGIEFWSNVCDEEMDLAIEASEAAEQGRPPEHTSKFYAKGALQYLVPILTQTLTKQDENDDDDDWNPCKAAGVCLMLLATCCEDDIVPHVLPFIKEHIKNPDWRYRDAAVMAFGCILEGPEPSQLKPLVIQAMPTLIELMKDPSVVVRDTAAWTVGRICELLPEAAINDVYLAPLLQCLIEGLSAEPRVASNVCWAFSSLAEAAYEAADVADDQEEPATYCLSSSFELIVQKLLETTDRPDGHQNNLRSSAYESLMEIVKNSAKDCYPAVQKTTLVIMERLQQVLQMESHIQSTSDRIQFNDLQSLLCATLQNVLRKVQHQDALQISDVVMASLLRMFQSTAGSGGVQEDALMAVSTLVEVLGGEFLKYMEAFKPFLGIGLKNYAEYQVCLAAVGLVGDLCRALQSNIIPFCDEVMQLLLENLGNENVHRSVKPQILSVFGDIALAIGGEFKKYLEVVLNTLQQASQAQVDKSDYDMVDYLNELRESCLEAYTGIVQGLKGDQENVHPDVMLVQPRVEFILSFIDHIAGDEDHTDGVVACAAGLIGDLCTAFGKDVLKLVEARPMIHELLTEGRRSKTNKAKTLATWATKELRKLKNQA
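FRET biosensor Rango (snurportin 1 IBB between N-terminal EYFP and C-terminal Cerulean), 50 nM in PBS/1 mM DTT/0.02% Tween-20/0.1% BSA, preincubated 5 min RT with compound; 0.125 microM importin beta added, 45 min RT, CFP/YFP FRET ratio read.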
Numbers without * were called inactive; ? = inconclusive; nt = no result given; [ ] = another dose, or the depositor's remark. The list is partial; count on the stated rates, not on these rows.

miR-21 reporter	Rango complex inh	Rango release inh	GLA inh pH 4.5	Molecule
nt	-0.5%	5%	nt	O=S(=O)(/C(=C\c1ccc(C(F)(F)F)cc1)c1nc2ccccc2[nH]1)c1ccccc1
-1%	-0.2%	-15%	nt	Cc1nccn1CCCNC(=O)CC1C(=O)NCCN1Cc1ccc(F)cc1Cl (centres undefined)
-3%	-4.0%	14%	13	Cc1ccc(Cn2c(N)c(S(=O)(=O)c3cccs3)c3nc4ccccc4nc32)cc1
5%	4.4%	-7%	nt	COc1ccc(CNC(=O)CNC(c2ccccc2)c2ccccc2)cc1OC
-6%	-4.8%	33%	1	COc1ccc(/C=N/NC(=O)CNc2n[nH]c(=O)[nH]c2=O)cc1OC
-6%	-2.0%	-4%	nt	COc1ccc(N2CCN(S(=O)(=O)c3ccc(OC)c(C(=O)N4CCCC4)c3)CC2)cc1
-2%	-2.1%	-22%	-1	C/C=C(/C)C(=O)Nc1cccc(C2=NOC3(C2)C[C@H](C(N)=O)N(C(=O)c2ccccc2)C3)c1 (some centres undefined)
-1%	0.0%	-7%	nt	Cc1cc2[nH]c(=O)c(=O)[nH]c2cc1S(=O)(=O)Nc1cccc(C)c1C
-9%	?	-28%	-6	Cc1ccc(CNC(=O)c2ccc(-n3cccc3)cc2)cc1
11%	-2.1%	-7%	-2	O=C(CSc1n[nH]c(-c2ccccc2O)n1)N1CCCc2ccccc21
0%	-5.2%	-7%	-19	Cc1ccc2c3c1C1(C(=O)N3C(C)(C)CC2C)C(C#N)=C(N)Oc2cc(O)ccc21 (centres undefined)
nt	1.6%	9%	nt	Cc1ccc2nc(NC(=O)CN3C(=O)NC4(CCCCC4)C3=O)sc2c1
-1%	7.6%	-4%	nt	Cc1cc(Br)cc(Br)c1OCC(=O)NNC(=O)CCC(=O)NCc1ccccc1
-5%	-0.6%	14%	nt	Cc1ccc(C(=O)Nc2ccccc2C(=O)Nc2ccccn2)cc1Cl
-3%	-1.5%	-2%	6	Cn1ncn2c(=O)c3c(nc12)-c1ccccc1CC31CCCC1
-39%	1.3%	-6%	-6	Cc1ccccc1C(=O)NNC(=O)/C=C\C(=O)O
1%	2.2%	-12%	4	S=C(NCCCN1CCOCC1)NC1CC1
5%	-1.0%	-17%	3	CC1(C)CC(=O)c2cc(NC(=O)c3ccc(F)cc3)c(=O)oc2C1
nt	?	-29%	nt	O=C(COC(=O)c1cnccn1)Nc1ncc(C(F)(F)F)cc1Cl
-6%	-1.0%	-5%	3	CCOC(=O)C(NCc1ccccn1)(NC(=O)c1cccnc1)C(F)(F)F (centres undefined)
-17%	0.9%	30%	-4	CC1(C)Cc2c(sc3nc4n(c(=N)c23)CCCCC4)CO1
nt	-2.8%	0%	nt	COc1ccc(-c2cc(C(=O)N(C)Cc3nc4ccccc4c(=O)[nH]3)c3ccccc3n2)cc1OC
-1%	0.4%	-4%	nt	COc1ccc(S(=O)(=O)NCC(=O)N(CC(=O)NCc2ccccc2)Cc2ccco2)cc1
-57%	?	?	nt	O=C1/C(=C/c2ccc(Br)cc2)Oc2cc(O)ccc21
-5%	0.9%	-4%	14	Cc1nc2ncc(Br)cc2[nH]1
nt	-4.7%	-1%	nt	CCOc1ccc(C(=O)NCC(=O)OCCCC(=O)c2ccc(F)cc2)cc1OCC
nt	1.8%	4%	nt	O=C(COc1ncnc2sccc12)Nc1cccc(S(=O)(=O)N2CCOCC2)c1
nt	1.4%	0%	nt	CSc1ncccc1C(=O)Nc1cccc(S(=O)(=O)N2CCCC2)c1
-4%	-1.8%	-6%	1	Nc1ccc(-c2cc(-c3cccc(N)c3)nc(-c3ccccc3)n2)cc1
-7%	-0.2%	2%	-18	O=C(NCc1ccco1)C(c1ccccc1F)N(Cc1cccnc1)C(=O)Cn1nnc2ccccc21 (centres undefined)
-29%	2.1%	3%	7	COc1ccc(NC(=O)c2ccc(Br)o2)c([N+](=O)[O-])c1
nt	3.3%	-7%	nt	CC(C)(Oc1ccc(Cl)cc1)C(=O)NC1CC1
1%	2.1%	-4%	0	Cc1ccc(C2CC(=O)Nc3cc4c(cc32)OCCO4)s1 (centres undefined)
-29%	nt	nt	-4	CC(C)(C)c1ccc(/C=N/NC(=S)Nc2cccnc2)cc1
-1%	-3.1%	-15%	-8	O=C(Cc1ccc(Cl)c(Cl)c1)Nc1ccc2[nH]c(=O)[nH]c2c1
1%	?	?	-6	CCOC(=O)/C(=C/C=C1\Sc2cc(C)c(C)cc2N1CC)C(C)=O
-1%	-0.7%	21%	-7	CN=C(NC)SC1CC(=O)N(c2ccccc2)C1=O (centres undefined)
nt	0.4%	-12%	nt	CCN(C(=O)CSc1nnc(Nc2ccc(OC)cc2)s1)C1CCS(=O)(=O)C1 (centres undefined)
1%	?	3%	nt	CSc1ccc(/C=C2\C(=N)N3N=C(CC(=O)N4CCOCC4)SC3=NC2=O)cc1
-1%	nt	nt	2	Cc1ccc(C(=O)NNC(=O)CSc2nnc(-c3ccncc3)n2-c2ccc(C)cc2)cc1

Entries shown so far that contain two or more sulfur atoms, in the order listed:
miR-21 reporter	Rango complex inh	Rango release inh	GLA inh pH 4.5	Molecule
-3%	-4.0%	14%	13	Cc1ccc(Cn2c(N)c(S(=O)(=O)c3cccs3)c3nc4ccccc4nc32)cc1
nt	1.8%	4%	nt	O=C(COc1ncnc2sccc12)Nc1cccc(S(=O)(=O)N2CCOCC2)c1
nt	1.4%	0%	nt	CSc1ncccc1C(=O)Nc1cccc(S(=O)(=O)N2CCCC2)c1
nt	0.4%	-12%	nt	CCN(C(=O)CSc1nnc(Nc2ccc(OC)cc2)s1)C1CCS(=O)(=O)C1 (centres undefined)
1%	?	3%	nt	CSc1ccc(/C=C2\C(=N)N3N=C(CC(=O)N4CCOCC4)SC3=NC2=O)cc1

(listing goes on)
miR-21 reporter	Rango complex inh	Rango release inh	GLA inh pH 4.5	Molecule
-28%	-0.2%	8%	7	CCOC(=O)c1ccc(NC(=O)Cn2cccc2)cc1
0%	0.3%	9%	nt	CCn1cc(C(=O)N[C@H](C(=O)O)C(C)C)c(=O)c2cc3c(cc21)OCO3
-2%	4.6%	39%	nt	Cn1nnnc1SCCNC(=O)C1CCC(=O)N(Cc2ccccc2F)C1 (centres undefined)
-1%	2.6%	-8%	nt	CCN1C(=NCCOC)N[C@@H](c2ccccc2)[C@H](C(=O)OC)[C@H]1C
-54%	?	11%	-10	Cc1ccc(Nc2nc(COC(=O)COc3ccc(C=O)cc3)cs2)cc1
5%	6.3%	-7%	5	CCC(C)N(NC(C)=O)c1nc(Cl)nc(NC(C)C)n1 (centres undefined)
-3%	0.3%	1%	2	Cc1c(C(=O)O)c(=S)sn1CCOc1ccccc1
-4%	-0.2%	-7%	-9	Cc1cccc(NC(=O)C2C3CCC4C(CCC32)C4(Cl)Cl)c1 (centres undefined)
-5%	3.4%	3%	-1	CCNC(=O)CC1SC(=Nc2ccc(Cl)cc2)N(CC)C1=O (centres undefined)
nt	-0.1%	-7%	nt	CC(=O)Nc1ccc(C(=O)COC(=O)C2CC2)c(F)c1
27%	2.6%	3%	-4	CC1Cc2cc(-c3csc(NC(=O)Cc4ccccc4)n3)ccc2N1S(C)(=O)=O (centres undefined)
-2%	-1.7%	5%	nt	COc1ccc(CC(NC(C)=O)C(=O)NC2CCN(C(=O)C3CCCCC3)CC2)cc1OC (centres undefined)
-1%	2.3%	-10%	3	CCCCOc1ncnc2c1[nH]c1ccc(F)cc12
-39%	nt	nt	-9	Cc1ccc(C(=O)Nc2cc(Cl)ccc2OC(=O)c2ccc(C)cc2)cc1
-5%	?	0%	-4	COc1ccc2nc3oc(C(=O)N4CCN(c5ccccc5F)CC4)cc3cc2c1
3%	1.3%	10%	-2	Cc1cc(C)cc(NC(=S)NCc2cccnc2)c1
nt	0.0%	1%	nt	Cc1cc(N)cc(C)c1-c1c(Br)cc(N)cc1Br
1%	3.8%	12%	6	Cc1nnc(NC(=O)c2ccc3c(c2)C(=O)N(CCC(C)C)C3=O)s1
-9%	-3.0%	-6%	8	Cc1nc2c3ccccc3nc(NNC(=O)CCC(=O)NC(C)C)n2n1
nt	0.2%	-17%	nt	Cc1c(NC(=O)C(C)OC(=O)COc2ccc(C#N)cc2)c(=O)n(-c2ccccc2)n1C (centres undefined)
-23%	-1.2%	-11%	7	O=C(COC(=O)c1ccc(O)cc1)Nc1nccs1
-37%	1.3%	-6%	nt	COc1cc(C)ccc1OCc1cc(C(=O)N2CCCCCCC2)no1
-4%	-0.6%	10%	-3	CCOc1ccccc1NC(=S)N1CCCc2ccccc21
nt	0.2%	-11%	nt	CCCc1cc(=O)[nH]c2nnc(SCC(=O)Nc3ccc(NC(C)=O)cc3)n12
6%	nt	nt	?	COc1cc2nc(N(C)CCCNC(=O)C3CCCO3)nc(N)c2cc1OC (centres undefined)
-4%	-2.1%	11%	-4[21.1 µM]	Cc1nc2ccc(S(=O)(=O)NCC(=O)N(C)Cc3ccccc3)cc2s1
0%	-0.1%	13%	nt	CC(C)C[C@@H](CO)N1CCN(Cc2ccccc2)CCC1=O
?	-7.6%	?	-3	COc1ccccc1NC1=C(N2CCCCC2)C(=O)c2ccccc2C1=O
-1%	-1.1%	6%	nt	CCOC(=O)c1cc(S(=O)(=O)N(C)Cc2ccccc2)cn1C
-1%	5.6%	49%	9	O=C(O)c1ccccc1SCc1cn2ccccc2n1
-2%	0.7%	?	1	O=C(Cn1cnc2cc([N+](=O)[O-])ccc2c1=O)NCCc1ccc(F)cc1
2%	-5.1%	-24%	3	Cn1c(=O)[nH]c(=O)c2c1nc(N1CCCC1)n2CC(O)COc1ccccc1 (centres undefined)
1%	0.3%	-9%	-2	O=C1NC[C@H](c2ccccc2)N(CCc2cccc3ccccc23)C1=O
8%	2.4%	10%	9	COC(=O)c1ccc(NC(=O)CN(c2ccc(C)cc2)S(=O)(=O)c2c(C)n[nH]c2C)cc1
-1%	-0.7%	-11%	nt	CCCCCCn1nc(C(=O)N(CC(C)C)c2c(N)n(CCCC)c(=O)[nH]c2=O)c2ccccc2c1=O
-59%	0.2%	8%	1	CC1CN(C(=O)c2cc([N+](=O)[O-])cc([N+](=O)[O-])c2)CC(C)O1 (centres undefined)
nt	4.1%	-7%	nt	O=C(Cn1c(C(=O)c2ccccc2)nc2ccccc21)c1ccc(Cl)cc1
nt	-8.7%	-19%	nt	COc1cc(C#Cc2c(-c3cncn3C)n(C)c3ccc(-c4ccc5cc[nH]c5c4)cc23)cc(OC)c1
-4%	-2.4%	23%	-7	CCN(CC(=O)Nc1ccc(C(=O)OC)cc1)Cc1ccccc1
1%	-2.6%	11%	2	CCCCNC(=S)Nc1ccc2[nH]c(=O)[nH]c2c1
-22%	-0.3%	-13%	-7	COc1ccc(NC(=O)N2CCn3c2nc2ccccc23)cc1
7%	-0.6%	3%	-2	O=C(c1cn(-c2ccccc2)nc1-c1ccccc1)N1CCN(c2ccccn2)CC1
-4%	?	?	-2	C=CCOC(=O)C(C#N)c1nc2ccccc2nc1N1CCC(C(=O)OCC)CC1 (centres undefined)
-1%	-1.9%	-19%	1	c1ccc(CCCNCC2COc3ccccc3O2)cc1 (centres undefined)
-5%	-4.1%	0%	-9	O=c1[nH][nH]c(=O)c2cc(N3CCCC3)ccc12
0%	0.9%	13%	nt	Cc1ccn2c(=O)c(C(=O)NCCN3CCOCC3)c(O)nc2c1
-28%	-3.8%	-1%	-2	O=C(NCc1ccccc1)c1ccc(-c2ccc(F)cc2)o1
